Vaccinia stage – blocks a specific stage of Vaccinia orthopoxvirus infection | Vaccinia-infected cells, mCherry/Venus stage reporter fluorescence; active compounds read low; some inactives read as strong as hits | AID 1053133 | activity change (mCherry), % (concentration not given with the values) | 0.01% of 89,000 active;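 active = mCherry past -33% and 40 or more points under the early reporter, replicates agreeing; inconclusive = past -33% without that gap or agreement; tested in A549 cells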;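 note: scaled between vehicle wells and reference inhibitor wells; 23 nL library stock went into each well; one replicate is shown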
Vaccinia stage Venus – also measured in Vaccinia stage; calls as there; activity change (Venus), %; measured here: Venus reporter, other viral stage;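 negative = less Venus signal; first of two replicates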
Active calls of the source: *; ? = inconclusive; . = no result given; & = joins results of further samples. Not all compounds are listed; the hit share may differ from the screen's.

SMILES | Vaccinia stage | Vaccinia stage Venus
O=C(Nc1ccccc1)N1CC(=O)N2[C@H](CO)[C@@H](c3ccc(C#CC4CCCCC4)cc3)[C@H]2C1 | ? | .
CC(C)NC(=O)N1C[C@H]2[C@@H](c3ccccc31)[C@@H](CO)N2Cc1ccc(Cl)cc1 | 10 | 5
COc1cccc(C(=O)Nc2ccc3c(c2)C(=O)N(C)[C@@H]2CC[C@@H](CC(=O)NCCCN4CCOCC4)O[C@H]2CO3)c1 | 7 | 12
O=C(C[C@@H]1C[C@H]2c3cc(NC(=O)CC4CC4)ccc3O[C@H]2[C@@H](CO)O1)NCc1ccccc1F | 13 | 12
C[C@@H]1CCCCO[C@@H](CN(C)Cc2ccc3c(c2)OCO3)[C@H](C)CN([C@H](C)CO)C(=O)c2cc(NC(=O)NC3CCCCC3)ccc2O1 | -29 | -16
Cc1ccc(S(=O)(=O)N(C)C[C@H]2Oc3ccc(NC(=O)Nc4ccccc4)cc3CC(=O)N([C@H](C)CO)C[C@H]2C)cc1 | ? | .
COc1ccccc1NC(=O)N(C)C[C@@H]1OCc2ccccc2-c2ccccc2C(=O)N([C@H](C)CO)C[C@H]1C | 35 | 17
C[C@H](CO)N1C[C@H](C)[C@@H](CN(C)C(=O)Nc2ccccc2)OCCCC[C@H](C)Oc2ccc(NC(=O)c3ccccc3)cc2C1=O | 4 | -1
COc1cccc(-c2ccc(C3[C@H]4CNC[C@@H]3N4C(=O)Nc3cc(F)ccc3F)cc2)c1 (stereo not given in full) | -9&-13 | -10&-7
COc1ccc(NC(=O)N(C)C[C@H]2Oc3ccc(NC(=O)CCC(F)(F)F)cc3CC(=O)N([C@@H](C)CO)C[C@H]2C)cc1 | 15 | 12
CN(C)CCCNC(=O)C[C@H]1CC[C@@H](NC(=O)c2ccccc2F)[C@H](CO)O1 | 1 | 6
COc1ccccc1-c1cn(CC[C@H]2CC[C@@H](NC(=O)C3CCC3)[C@H](CO)O2)nn1 | 0 | 8
CO[C@H]1CN(C)C(=O)c2cc(NC(=O)c3nc4ccccc4s3)ccc2OC[C@@H](C)N(Cc2cccnc2)C[C@@H]1C | ? | .
COc1ccc(-c2ccccc2[C@H]2[C@@H](C#N)N(C(=O)C3CC3)[C@@H]2CO)cc1 | -2 | 2
COc1ccc2c3c([nH]c2c1)[C@@H](CO)NCC31CN(Cc2cc(F)ccc2F)C1 | -21 | -14

Some of the entries so far, as a markdown table:
| SMILES | Vaccinia stage | Vaccinia stage Venus |
| --- | --- | --- |
| CN(C)CCCNC(=O)C[C@H]1CC[C@@H](NC(=O)c2ccccc2F)[C@H](CO)O1 | 1 | 6 |
| O=C(Nc1ccccc1)N1CC(=O)N2[C@H](CO)[C@@H](c3ccc(C#CC4CCCCC4)cc3)[C@H]2C1 | ? | . |

Going on with the list:
SMILES | Vaccinia stage | Vaccinia stage Venus
CC(=O)NC[C@H]1[C@H](c2ccccc2)[C@H](CO)N1C(=O)Cc1cccnc1 | 9 | 1
O=C(NCC[C@H]1CC[C@@H](NS(=O)(=O)Cc2ccccc2)[C@H](CO)O1)C1CCCC1 | -4 | 3
Cc1noc(C)c1NC(=O)Nc1cccc2c1O[C@H](CN(C)Cc1ccc(C(F)(F)F)cc1)[C@H](C)CN([C@H](C)CO)C2=O | -2 | -2
C[C@@H]1CN([C@H](C)CO)C(=O)Cc2cc(NC(=O)Nc3ccc(F)cc3)ccc2O[C@H]1CN(C)Cc1ccc(C(=O)O)cc1 | 18 | 15
C[C@@H]1CN([C@@H](C)CO)C(=O)c2cc(NC(=O)c3ccncc3)ccc2O[C@@H](C)CCCCO[C@@H]1CN(C)S(=O)(=O)c1cccs1 | 19 | 16
COc1ccc2c3c(n(C)c2c1)[C@@H](CO)NCC31CCN(C(=O)c2cccc(F)c2)CC1 | -22 | -9
C[C@@H]1CN([C@H](C)CO)C(=O)CCCn2cc(nn2)CO[C@H]1CN(C)C(=O)Nc1ccccc1 | ? | .
COc1ccc(S(=O)(=O)Nc2ccc3c(c2)C(=O)N([C@@H](C)CO)C[C@H](C)[C@@H](CN(C)S(=O)(=O)c2ccc(Cl)cc2)OCCCC[C@H](C)O3)cc1 | -28 | -25
CCC(=O)N1[C@H](CO)[C@@H]2c3ccccc3N(C(=O)Nc3ccc(Cl)cc3)C[C@@H]21 | 2 | 4
C[C@H]1CN([C@@H](C)CO)S(=O)(=O)c2ccc(C3=CCCC3)cc2O[C@@H]1CN(C)C(=O)c1ccccn1 | 6 | -4
Cc1noc(C)c1NC(=O)N(C)C[C@@H]1Oc2ncc(C#CC(C)C)cc2C(=O)N([C@@H](C)CO)C[C@H]1C | 7 | -11
Cc1noc(C)c1S(=O)(=O)N(C)C[C@@H]1OCCCC[C@@H](C)Oc2ccc(NC(=O)Nc3cccc4ccccc34)cc2C(=O)N([C@@H](C)CO)C[C@H]1C | 12 | 26
CCC(=O)Nc1ccc2c(c1)OC[C@@H](C)N(C(=O)COC)C[C@@H](C)[C@H](OC)CN(C)C2=O | 14 | 10
Cc1noc(C)c1S(=O)(=O)N(C)C[C@@H]1OCc2cn(nn2)CCCC(=O)N([C@H](C)CO)C[C@@H]1C | -3 | 7
CN1C(=O)c2cc(NS(=O)(=O)c3ccc(Cl)cc3)ccc2OC[C@H]2O[C@H](CC(=O)O)CC[C@@H]21 | 10 | 14
C[C@@H]1CN([C@@H](C)CO)S(=O)(=O)c2ccc(C3=CCCC3)cc2O[C@H]1CN(C)C | -23 | -15
C[C@H]1CN([C@@H](C)CO)S(=O)(=O)c2ccc(-c3ccc(C(=O)N(C)C)cc3)cc2O[C@@H]1CN(C)C(=O)Nc1ccccc1F | -10 | -10
O=C(NCC[C@H]1CC[C@H](NC(=O)C2CCCC2)[C@H](CO)O1)c1cc(Cl)cc(Cl)c1 | 3 | 9
COc1ccccc1-c1ccc([C@H]2[C@@H](CO)N(C(C)=O)C23CN(C(C)=O)C3)cc1 | 2 | 1
CCCC#Cc1cnc2c(c1)C(=O)N([C@@H](C)CO)C[C@H](C)[C@H](CN(C)C(=O)CN1CCOCC1)O2 | 17 | 7
COCC(=O)Nc1ccc2c(c1)C(=O)N(C)C[C@H](OC)[C@H](C)CN(Cc1cncnc1)[C@@H](C)CO2 | 1 | 9
C[C@H](CO)N1C[C@H](C)[C@@H](CN(C)Cc2ccc(Oc3ccccc3)cc2)Oc2ccc(NS(=O)(=O)c3ccc(Cl)cc3)cc2C1=O | ? | .
CO[C@H]1CN(C)C(=O)c2ccc(NC(=O)Nc3ccccc3F)cc2OC[C@@H](C)NC[C@H]1C | 8 | 7
COc1ccc2c3c(n(C)c2c1)[C@H](CO)N(C(=O)c1cnccn1)CC31CN(C(=O)c2cnccn2)C1 | 6 | 1
C[C@@H]1CCCCO[C@H](CN(C)C(=O)c2ccccc2)[C@H](C)CN([C@@H](C)CO)C(=O)c2cc(NC(=O)Nc3cccc4ccccc34)ccc2O1 | -2 | 1
CCC(=O)N1CC2(C1)CN(CC1CCOCC1)[C@@H](CO)c1c2c2ccc(OC)cc2n1C | 1 | 5
C/C=C/c1ccc2c(c1)O[C@H](CN(C)C(=O)c1cccc(F)c1)[C@H](C)CN([C@H](C)CO)S2(=O)=O | -23 | -23
COc1ccc(NC(=O)Nc2ccc3c(c2)C(=O)N([C@H](C)CO)C[C@@H](C)[C@H](CN(C)Cc2ccccc2)O3)cc1 | -16 | -13
C[C@H](CO)N1C[C@H](C)[C@@H](CN(C)CC2CCCCC2)Oc2ccc(NC(=O)Cn3cnnn3)cc2CC1=O | 3 | 0
O=C(c1ccccn1)N1C[C@H]2[C@@H](c3ccccc31)[C@H](CO)N2C(=O)C1CCCCC1 | 6 | 10

Profiles from above:
Shown for `C/C=C/c1ccc2c(c1)O[C@H](CN(C)C(=O)c1cccc(F)c1)[C@H](C)CN([C@H](C)CO)S2(=O)=O` = Vaccinia stage = -23; Vaccinia stage Venus = -23
Shown for `C[C@H](CO)N1C[C@H](C)[C@@H](CN(C)Cc2ccc(Oc3ccccc3)cc2)Oc2ccc(NS(=O)(=O)c3ccc(Cl)cc3)cc2C1=O` = Vaccinia stage = ?; Vaccinia stage Venus = .
Shown for `CO[C@H]1CN(C)C(=O)c2ccc(NC(=O)Nc3ccccc3F)cc2OC[C@@H](C)NC[C@H]1C` = Vaccinia stage = 8; Vaccinia stage Venus = 7

More entries follow:
SMILES | Vaccinia stage | Vaccinia stage Venus
C[C@H]1CN([C@@H](C)CO)C(=O)c2cc(Br)cnc2O[C@@H]1CN(C)Cc1ccccn1 | 11 | 1
C[C@H]1CN([C@@H](C)CO)C(=O)c2cccc(NC(=O)Nc3ccccc3)c2O[C@@H]1CN(C)Cc1ccncc1 | -3 | -1
CN(C)CC#Cc1ccc([C@H]2[C@@H](CO)N3C(=O)CN(C(=O)c4cccc(F)c4)C[C@H]23)cc1 | 9 | 2
CN1C(=O)c2cc(NC(=O)Nc3cccc(Cl)c3)ccc2OC[C@@H]2O[C@H](CC(=O)O)CC[C@H]21 | -3 | 3
COc1ccccc1C(=O)Nc1ccc2c(c1)C(=O)N(C)C[C@@H](OC)[C@@H](C)CN(C)[C@@H](C)CO2 | 10 | 2
C[C@@H]1CN([C@@H](C)CO)C(=O)Cc2cc(NC(=O)Cn3cnnn3)ccc2O[C@H]1CN(C)S(=O)(=O)c1ccccc1 | -4 | 8
CC1C=NC(S(=O)(=O)N2CC[C@@H]3[C@H]2c2cc(-c4ccccc4)ccc2N(C)[C@H]3CO)=N1 (stereo not given in full) | -4 | -4
COc1ccccc1-c1ccc([C@@H]2[C@H](CO)N3CCCCN(C(=O)CN4CCOCC4)C[C@@H]23)cc1 | 6 | -6
COc1ccc(CN(C)C[C@@H]2Oc3ccc(NC(=O)Nc4ccc(C(F)(F)F)cc4)cc3C(=O)N([C@@H](C)CO)C[C@@H]2C)cc1 | -20 | -3
O=C(N[C@@H]1CC[C@@H](CCNS(=O)(=O)Cc2ccccc2)O[C@H]1CO)c1cnccn1 | -6 | -6
C[C@H]1CN([C@@H](C)CO)C(=O)Cc2cc(NS(=O)(=O)c3ccc(F)cc3)ccc2O[C@@H]1CN(C)C(=O)Nc1cccc2ccccc12 | 26 | 6
CO[C@@H]1CN(C)C(=O)c2cc(NS(=O)(=O)c3ccccc3F)ccc2OC[C@H](C)NC[C@H]1C | 9 | 11
C[C@@H]1CN([C@@H](C)CO)C(=O)c2cc(C#Cc3ccccc3F)cnc2O[C@@H]1CN(C)S(=O)(=O)c1ccccc1 | -29 | -16
COc1ccccc1S(=O)(=O)N[C@@H]1CC[C@H](CC(=O)NCc2cc(F)cc(F)c2)O[C@@H]1CO | 30 | 23
O=S(=O)(N[C@@H]1CC[C@H](CCn2cc(-c3cccc(F)c3)nn2)O[C@@H]1CO)c1ccccc1 | 1 | -4

Gathered by group, the entries above with a COOH group
SMILES | Vaccinia stage | Vaccinia stage Venus
C[C@@H]1CN([C@H](C)CO)C(=O)Cc2cc(NC(=O)Nc3ccc(F)cc3)ccc2O[C@H]1CN(C)Cc1ccc(C(=O)O)cc1 | 18 | 15
CN1C(=O)c2cc(NS(=O)(=O)c3ccc(Cl)cc3)ccc2OC[C@H]2O[C@H](CC(=O)O)CC[C@@H]21 | 10 | 14
CN1C(=O)c2cc(NC(=O)Nc3cccc(Cl)c3)ccc2OC[C@@H]2O[C@H](CC(=O)O)CC[C@H]21 | -3 | 3

(further entries)
SMILES | Vaccinia stage | Vaccinia stage Venus
CN(C)C(=O)c1cccc(-c2ccc([C@@H]3[C@@H](CO)N4C(=O)CN(C(=O)Cc5ccccc5)C[C@H]34)cc2)c1 | -1 | -3
C[C@H]1CN([C@@H](C)CO)C(=O)c2cc(NC(=O)Nc3cccc4ccccc34)ccc2O[C@H]1CN(C)C(=O)Nc1ccc2c(c1)OCO2 | 28 | 25
CCC(=O)N1C[C@H](C)[C@H](OC)CN(C)C(=O)c2ccc(NC(=O)Nc3cccc(F)c3)cc2OC[C@@H]1C | 2 | 8
C[C@@H]1CN([C@@H](C)CO)C(=O)Cc2cc(NC(=O)C3CC3)ccc2O[C@H]1CN(C)S(=O)(=O)c1ccc(F)cc1 | -5 | 3
CC(C)NC(=O)N[C@H]1CC[C@@H](CC(=O)O)O[C@@H]1CO | 1 | 1
O=C(Nc1cc(F)ccc1F)N[C@@H]1CC[C@@H](CCn2cc(C3CCCCC3)nn2)O[C@@H]1CO | -12 | -9
C[C@H](CO)N1C[C@H](C)[C@H](CN(C)C(=O)Nc2ccc3c(c2)OCO3)Oc2ccc(NC(=O)Nc3ccc(F)cc3)cc2C1=O | 12 | 11
CCC(=O)N1C[C@@H](C)[C@@H](OC)CN(C)C(=O)c2cc(NC(=O)CC(F)(F)F)ccc2OC[C@H]1C | 1 | 9
O=C(C[C@@H]1CC[C@@H](NC(=O)c2ccc(F)cc2)[C@@H](CO)O1)NCc1ccncn1 | 7 | 3
CCCNC(=O)[C@H]1[C@H](CO)[C@H]2Cn3c(cccc3=O)[C@H]2N1C(=O)C1CCCC1 | 18 | 14
C[C@@H]1CN([C@H](C)CO)C(=O)c2cc(-c3cccc(F)c3)cnc2O[C@@H]1CN(C)Cc1cccnc1 | 16 | 3
CC(C)NC(=O)N1CC2(C1)[C@@H](c1ccccc1)[C@H](CO)N2C(=O)c1ccccn1 | 9 | 7
CNC[C@H]1Oc2c(NC(=O)c3ccc(-c4nccs4)cc3)cccc2C(=O)N([C@H](C)CO)C[C@H]1C | 1 | -2
CNC[C@H]1Oc2c(NC(=O)c3cc(C)nn3C)cccc2C(=O)N([C@H](C)CO)C[C@H]1C | 13 | 10
O=C(C[C@@H]1C[C@@H]2c3cc(NC(=O)C4CCC4)ccc3O[C@@H]2[C@H](CO)O1)NCc1cccnc1 | 20 | 8
C[C@H]1CN([C@@H](C)CO)C(=O)Cc2cc(NC(=O)c3ccncc3)ccc2O[C@H]1CN(C)S(=O)(=O)c1ccc(F)cc1 | 11 | 10
Cc1noc(C)c1S(=O)(=O)Nc1ccc2c(c1)C(=O)N([C@H](C)CO)C[C@H](C)[C@@H](CN(C)C(=O)Nc1ccc(C(F)(F)F)cc1)O2 | -1 | -4
